Source: PubChem (National Center for Advancing Translational Sciences (NCATS))
SARS PLP yeast: SARS-CoV PLP inhibition in yeast; hit rate 0.19% among 330,000; S. cerevisiae expressing SARS-CoV PLpro, growth rescue; control for the full effect not named in the record; AID 485353; Potency, µM (doses to about 32.9 µM), without a hit: at the top dose activity, positive = growth rescue; note: 0% is about no effect; nearly all actives have a fitted effect of over 55% in size; growth read by luminescence after 48 h
NS1 inh: influenza NS1 inhibition; S. cerevisiae slowed by influenza A NS1, growth recovery by OD600; Potency, µM (doses to about 46.1 µM), inactives show at the top dose activity, positive = more growth; hit rate 0.4% among 270,000; note: actives are rising curves; nearly all actives have a fitted effect of over 50% in size
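OD600 was taken as the measure of yeast growth restored by compound in an NS1-expressing S. cerevisiae strain. Cells had been washed out of glucose medium and diluted 1:100 into galactose -URA medium, pH 6.0.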
MARV entry inh: Marburg virus entry inhibition; Marburg virus pseudotyped entry inhibition, cell reporter; control for the full effect not named in the record; about a third of the inactives were read at about 46 µM; Potency, µM (highest dose often 37.8 µM), inactives show at the top dose activity change, negative = inhibition, usual class: inhibitors; hit rate 1.8% among 300,000; AID 540276; active = well fitted inhibition curve with a large enough effect; inconclusive = small, poorly fitted or top-dose-only effect, or effect the other way; inactive = flat fitted curve, though single readings scatter; tested in HEK293 cells; about a fifth of its hits are not listed in these tables; note: % is set by controls: 0 for no effect and ±100 for the full control effect; luciferase read-out
Cruzain noTriton: blocks cruzain activity in detergent-free assay. P25779. purified cruzain, Z-FR-AMC fluorescence, no detergent. Potency, µM, inactives show max response, negative = inhibition, hits mostly inhibitors. hit rate 2.3% among 200,000. AID 1476; active = well fitted curve in the direction sought with a large enough effect; inconclusive = small, poorly fitted or top-dose-only effect, or another doubt; inactive = no such curve, though single readings can be large; an effect the other way counts as inactive or inconclusive;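 note: plate controls were enzyme without inhibitor for no effect and buffer without enzyme for full effect; nearly all actives have a fitted effect of over 40% in size; top concentration of the series not given in the record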
Target sequence (P25779 123-467 limits assumed): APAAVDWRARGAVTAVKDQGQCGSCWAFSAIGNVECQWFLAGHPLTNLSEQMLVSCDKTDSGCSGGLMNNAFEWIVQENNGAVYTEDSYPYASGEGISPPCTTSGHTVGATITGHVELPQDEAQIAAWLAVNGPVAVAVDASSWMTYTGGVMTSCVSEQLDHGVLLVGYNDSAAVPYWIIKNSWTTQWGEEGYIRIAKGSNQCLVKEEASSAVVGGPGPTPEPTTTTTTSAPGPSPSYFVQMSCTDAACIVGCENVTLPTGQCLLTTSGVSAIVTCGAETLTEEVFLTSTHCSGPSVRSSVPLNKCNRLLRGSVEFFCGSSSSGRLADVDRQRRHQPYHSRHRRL
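Purified cruzain at 1.5 nM, pre-incubated 15 min with compound at room temperature in 100 mM sodium acetate pH 5.5, 5 mM DTT, 0.00005% Triton X-100. Reaction started with 2 uM Z-FR-AMC; AMC fluorescence increase over 60 s gives rate.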
2A StopGo: FMDV 2A StopGo reporter, luciferase signal; human cells with a luciferase reporter of 2A StopGo recoding; control for the full effect not named in the record; Potency, µM (series often up to 57.9 µM), for inactives: top-dose signal change, negative = less light; hit rate 1.2% among 410,000; active = well fitted falling curve with a large enough effect; inconclusive = small, poorly fitted or top-dose-only effect; inactive = no such curve, though single readings can be large or run the other way; tested in HEK293T cells; note: % is set by controls: 0 for no effect and ±100 for the full control effect; nearly all actives have a fitted effect of over 45% in size; luciferase light after 4 h
Cruzain Triton: inhibitors of Trypanosoma cruzi cruzain with detergent; purified cruzain, Z-FR-AMC fluorescence, 0.01% Triton; P25779; Potency, µM, inactives show max response, negative = inhibition, hits mostly inhibitors; hit rate 0.43% among 200,000; active = well fitted curve in the direction sought with a large enough effect; inconclusive = small, poorly fitted or top-dose-only effect, or another doubt; inactive = no such curve, though single readings can be large; an effect the other way counts as inactive or inconclusive;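 note: plate controls were neutral wells for no effect and buffer without enzyme for full effect; nearly all actives have a fitted effect of over 40% in size; top concentration of the series not given in the record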
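Detergent-containing run (0.01% Triton X-100) in acetate buffer pH 5.5 with 5 mM DTT: enzyme at 1.5 nM final, 15 min compound preincubation at room temperature, then 2 uM Z-FR-AMC substrate. Activity taken as 60 s fluorescence increase at 360/450 nm.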
Lassa entry inh: Lassa virus entry inhibition; Lassa virus pseudotype entry inhibition, cell reporter; control for the full effect not named in the record; Potency, µM (doses to about 37.9 µM), without a hit: at the top dose activity change, negative = inhibition, hits mostly inhibitors; hit rate 1.2% among 300,000; AID 540256; active means well fitted inhibition curve with a large enough effect; inconclusive means small, poorly fitted or top-dose-only effect, or effect the other way; inactive means flat fitted curve, though single readings scatter; tested in HEK293 cells; note: % is set by controls: 0 for no effect and ±100 for the full control effect; nearly all actives have a fitted effect of over 50% in size; luciferase read-out
RE007 growth inh: less growth of the S. pombe RE007 Vpr strain; S. pombe RE007 Vpr strain, BacTiter-Glo ATP luminescence, 24 h; control for the full effect not named in the record; Potency, µM (series often up to 92.2 µM), for inactives: at the highest dose activity change, negative = less growth; hit rate 0.21% among 360,000; active = well fitted falling curve with a large enough effect; inconclusive = small, poorly fitted or top-dose-only effect; inactive = no such curve, though single readings can be large or run the other way;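 note: % is set by controls: 0 for no effect and ±100 for the full control effect; nearly all actives have a fitted effect of over 50% in size; the assay follows cell death caused by Vpr and the record does not say whether a fall means rescue or toxicity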
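Fission yeast strain RE007, carrying one chromosomally integrated HIV-1 vpr copy, was seeded at OD 0.01 in PMG+AL medium with 23 nL pinned compound. After 24 h at 30 °C and 99% humidity, viability was read by BacTiter-Glo luminescence.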
Numbers without * were called inactive; u = inconclusive; x = no result given; & = joins results of further samples; [ ] = another dose, or the depositor's remark. Unless noted, calls come from the whole dose curve; as a rule, active means well fitted rising curve with a large enough effect; inconclusive means small, poorly fitted or top-dose-only effect; inactive means no such curve, though single readings can be large or run the other way. Potency is the fitted concentration of half-maximal effect.

SMILES	SARS PLP yeast	NS1 inh	MARV entry inh	Cruzain noTriton	2A StopGo	Cruzain Triton	Lassa entry inh	RE007 growth inh
O=C(O)CC1OCC=C2CN3CCC45C6=CC(=O)C(=O)C([N+](=O)[O-])=C6NC4C1C2CC35 (stereo not drawn)	-2%	4%	-28%&-28%[46.1 µM]	x	-28%	x	-13%[46.1 µM]	-4%
CCCC(=O)Nc1ccc2c(c1)nc1n2CCOC1	1%	5%	u	5%	50%[activator]	-0.1%	u	8%
Cc1nn(-c2ccc(C(=O)O)cc2)c(=O)c2ccccc12	-6%	-1%	1%[46.1 µM]	7%	16%	-3.7%	15%	23%
CC(C)(C)NCCOCCOc1ccccc1-c1ccccc1	-1%	5%	u	-10%	-7%	0.1%	u	-18%
CCOC(=O)C(NC(=O)c1cccc(Cl)c1)(OCc1ccc(F)cc1)C(F)(F)F (stereo not drawn)	-38%	-75%	u	-8%	u	-6.6%	u	20%
CCc1nn(CC(=O)NCCCOC)c(=O)c2cc3ccccc3n12	x	x	-10%[46.1 µM]	-12%	-14%	-0.7%	x	x
COc1ccc(OC)c(N2C(=O)NC(=O)/C(=C\c3ccc([N+](=O)[O-])s3)C2=O)c1	-5%	x	u	x	-15%	x	-3%	u
Fc1ccc(Cn2nnnc2C(c2ccc(Cl)cc2)N2CC=C(c3ccc(F)cc3)CC2)cc1 (stereo not drawn)	-25%	-1%	12%	u	-14%	-3.9%	2%	-22%
O=C(C1CCCCC1)N(Cc1cccnc1)c1nc2ccc(Cl)cc2s1	x	x	x	-8%	18%	-1.2%	19%[46.1 µM]	x
CCCCCCc1c(O)nc(SCC(=O)O)[nH]c1=O	6%	4%	x	-27%	-2%	-0.1%	x	10%
Cc1ccc(S(=O)(=O)NCc2ccccn2)cc1C	1%	-13%	x	x	79%[activator]	x	x	30%
Cc1ccc(C(=O)N2CCN(c3ccccc3)CC2)cc1S(=O)(=O)N1CCOCC1	-3%	-7%	3%	x	0%	x	-5%	32%
Cc1ccc(N=N/C(=C\O)C(=O)c2ccncc2)cc1	-12%	-40%	u	-6%	u	-6.6%	u	20µM*
CS(=O)(=O)c1ccc(Cl)c(NC(=O)CCCSc2ccccc2)c1	-2%	13%	6%[46.1 µM]	x	-2%	x	u	28%
CCNc1nc(OC)nc(SCC(N)=O)n1	x	-14%	17%[46.1 µM]	10%	-13%	5.5%	-1%	-14%
COc1ccc(C2=NN(c3ccccc3)C(c3ccc(OC)c(OC)c3)C2)cc1 (stereo not drawn)	4%	u	x	x	22%	x	x	7%
COc1ccc(CN2CCN(Cc3ccc4cc(F)ccc4n3)CC2CCO)c(C)c1C (stereo not drawn)	u	18%	u	x	-17%	x	u	-4%
O=C(O)[C@@H]1CCCN1C(=O)c1ccccc1N1C(=O)[C@@H]2Cc3c([nH]c4ccccc34)C(c3cccc(Cl)c3)N2C1=O (stereo partly drawn)	4%	u	x	x	-10%	x	x	7%
Cc1cc(C)c(/C=N/NC(=O)c2nnn(-c3nonc3N)c2CN2CCC(C)CC2)c(C)c1	-4%	6%	u	x	12%	x	u	-26%
CCCc1cc2c(=O)c(-c3ccccn3)c(C)oc2cc1O	-2%	-13%	14%	-3%	x	4.2%	25%	-14%
CCOC(=O)c1cnc2scnn2c1=O	9%	1%	u	6%	-2%	-4.3%	10%	-3%
CCOC(=O)N1CCN(C(=O)CNCc2cccs2)CC1	8%	-1%	-2%[46.1 µM]	4%	-10%	5.3%	-10%	26%
Cn1c(=O)c2nc(-c3ccccc3)oc2c2ccccc21	-9%	-94%	10%	-4%	-5%	-12%	12%	-26%
COc1cc(NC(=O)c2c(C)oc3c2C2=NCCN2C=N3)cc(OC)c1OC	x	x	x	-15%	-6%	-1.1%	1%[46.1 µM]	x
O=c1cc(N2CCN(c3ccc(F)cc3)CC2)[nH]c(=O)n1C1CCCCC1	-11%	3%	u	-21%	-12%	1.7%	12%	20%
CCOC(=O)Cc1cc(=O)n(-c2nc3ccccc3s2)[nH]1	-1%	10µM*	22%	u	14%	18µM*	20%	3%
c1ccc(CN2c3ccccc3-c3nc4ccccc4n3C2c2ccccn2)cc1 (stereo not drawn)	-15%	-110%	1%	u	1%	-8.4%	15%	-3%[3.69 µM]
CCN(CC(=O)Nc1c(F)cccc1F)C(=O)CN1C(=O)C2CCCCC2C1=O (stereo not drawn)	2%	x	u	x	4%	x	-1%	9%
Cc1ccc2c(c1)N(C(=O)CCC(=O)N1CCN(c3ccccc3)CC1)CCO2	-4%	8%	x	x	0%	x	x	-7%
CC(=O)Nc1ccc(NC(=O)C2CCN(c3ccc(C(F)(F)F)cn3)CC2)cc1	-1%	7%	-9%[46.1 µM]	x	-27%	x	10%[46.1 µM]	-6%
CCN1C(C(=O)c2ccccc2)=C(OC(=O)c2ccccc2OC)c2ccccc2S1(=O)=O	x	x	-24%[46.1 µM]	-20%	-26%	-6.4%	u	x
OC1(c2ccc(Cl)cc2)CCN(Cc2cn[nH]c2-c2ccccc2)CC1	0%	6%	u	x	-11%	x	2%[46.1 µM]	1%
COc1ccc(N2CCN(CCNC(=O)c3ccc4nc5ccccc5c(=O)n4c3)CC2)cc1	1%	-2%	x	x	u	x	x	-3%
COC(=O)c1cc(Br)c(=O)n(CCc2ccc(O)cc2)c1	-1%	6%	11%	-7%	-17%	-0.5%	5%	-1%
C=CCn1c(-c2ccco2)n[nH]c1=S	-4%	7%	6%	7%	-22%	5.8%	-2%	-7%
CCc1ccc(OCC(=O)N/N=C\c2ccco2)c([N+](=O)[O-])c1	-33%	0%	-5%	-8%	14%	-3.3%	4%	-15%
Cc1ccc(CN2CCCC(C(=O)c3ccc4c(c3)OCO4)C2)cc1C (stereo not drawn)	1%	3%	x	x	-27%	x	x	-14%
O=C(Nn1cnnc1)c1ccccc1CCc1ccccc1	1%	-2%	17%	u	-12%	2.3%	5%	-1%
Cc1c(NC(=O)COc2cccc(Br)c2)c(=O)n(-c2ccccc2)n1C	10%	16%	u	x	8%	x	-2%[46.1 µM]	2%
CC(C)[C@H](NS(=O)(=O)c1ccccc1)C(=O)Nc1nccs1	1%	x	5%	x	-8%	x	-2%	-6%

An excerpt from above, reduced to Lassa entry inh, Cruzain noTriton and SARS PLP yeast:
| SMILES | Lassa entry inh | Cruzain noTriton | SARS PLP yeast |
| --- | --- | --- | --- |
| O=c1cc(N2CCN(c3ccc(F)cc3)CC2)[nH]c(=O)n1C1CCCCC1 | 12% | -21% | -11% |
| CCOC(=O)Cc1cc(=O)n(-c2nc3ccccc3s2)[nH]1 | 20% | u | -1% |

(cont.)
SMILES	SARS PLP yeast	NS1 inh	MARV entry inh	Cruzain noTriton	2A StopGo	Cruzain Triton	Lassa entry inh	RE007 growth inh
O=C(c1ccc(Cl)cc1)N1CCN(c2ccc(F)cc2)CC1	u	-19%	u	-2%	10%	-0.1%	12%	u
NS(=O)(=O)c1ccc(CCNc2ncnc3sccc23)cc1	3%	-3%	u	-13%	u	-2.4%	u	-9%
CC1CCCC(C)N1c1nnc(NC(=O)Cn2c(=O)oc3ccccc32)s1 (stereo not drawn)	19%	-106%	x	16%	-18%	-7.0%	x	-7%
CCc1nc(OCCN(CC)CC)c2oc3ccccc3c2n1	-1%	-7%	-12%	2%	0%	2.0%	2%	-13%
OC(CN1CCCCC1)Cn1c2ccccc2c2ccccc21 (stereo not drawn)	1%	2%	x	x	-5%	x	x	-6%
COC(=O)C1=C(C)N=C2SCCC(=O)N2C1c1ccc(OCc2ccccc2)c(OC)c1 (stereo not drawn)	x	x	u	u	-13%	-6.8%	u	x
Cc1ccc(NC(=O)C2CCCN2C(=O)NC2CCCCC2)cc1F (stereo not drawn)	1%	-5%	5%[46.1 µM]	x	2%	x	1%[46.1 µM]	1%
NNc1ccc2nnc(C(F)(F)C(F)(F)C(F)(F)F)n2n1	0%	-1%	u	x	3%	x	-12%[46.1 µM]	0%
O=C(COC(=O)c1cc(Br)ccc1O)NNC(=O)c1ccc(Cl)cc1	0%	x	8%	x	-5%	x	-5%	0%
O=C(CNC(=O)c1cccs1)OCC(=O)c1cccs1	1%	2%	16%	-22%	25%	-18%	-25%	0%
CCOC(=O)C1CCCN(C(=O)c2cc3cc(F)ccc3[nH]2)C1 (stereo not drawn)	-1%	-4%	x	x	8%	x	x	0%
Cc1ccc(CN(C(=O)c2ccc(Cl)c([N+](=O)[O-])c2)C2CCS(=O)(=O)C2)o1 (stereo not drawn)	1%	-10%	x	x	-15%	x	x	0%
COc1cc(N)c(C(=O)c2nccc3cc(OC)c(OC)cc23)cc1OC	14%	-2%	-5%	x	10%	x	-14%	6%
Cc1ccc(C(=O)COC(=O)c2cc(Cl)nc3ccccc23)cc1C	-4%	4%	-4%	-15%	-9%	1.8%	18%	-10%
O=C1Cn2c(nc3ccccc32)N1c1cccc(C(F)(F)F)c1	-5%	-7%	10%	-5%	26%	0.7%	0%	8%
CCSc1ccc(-c2nn(-c3ccccc3)cc2/C=C(/C#N)C(=O)NC)cc1	-2%	2%	8%	u	-18%	-0.6%	-10%	3%
Cc1ccc(N2CCN(C(=O)Nc3cn(CC(C)C)c(=O)c4ccccc34)CC2)c(C)c1	x	x	x	13%	-28%	-8.0%	0%[46.1 µM]	x
CCN1C(=O)/C(=C/c2nc3ccccc3c(=O)[nH]2)c2ccccc21	19%	6%	u	10%	17%	-2.5%	3%	-8%
O=C(Cc1cccs1)NCCc1csc(-c2ccccc2)n1	4%	-37%	13%[46.1 µM]	x	-9%	x	-3%	-20%
Cc1ccc(NC(=O)Cn2nnc(-c3nc(-c4ccc(Cl)cc4)no3)c2N)cc1C	x	x	x	-15%	-4%	-9.5%	26%[46.1 µM]	x
COc1ccc(CNC(=O)CCNS(=O)(=O)c2ccc3c(c2)oc(=O)n3C)cc1	-5%	0%	2%&2%[46.1 µM]	-6%	-1%&-15%	-1.7%	14%[46.1 µM]	-3%
